NPYLR7 agonist: activates Aedes aegypti NPYLR7 receptor; HEK293T NPYLR7/Galpha15, GCaMP6s calcium fluorescence; activation, % at 10 µM; 270,000 compounds, 0.15% hits; AID 1259423; in the data active means activation above about 40%;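 further: 0% = vehicle and 100% = reference agonist at the receptor; some compounds past the cut are filed as inactive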
NPYLR7 agonist max-min: recorded beside NPYLR7 agonist, whose call it bears; activation, %; measured here: Max-Min RFU normalised activation; some inactives read as strong as hits;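 span of the calcium signal over five minutes; 0% = vehicle and 100% = native peptide agonist; compound fluorescence can raise it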
* = called active by the depositor. A portion of the library; the hit share may differ from the screen's.

Sample of the layout (4 entries):
SMILES | NPYLR7 agonist | NPYLR7 agonist max-min
COc1cc(OC)c(N(CCO)CCO)cc1Cl | 14 | 10
CCOc1ccccc1NC(=Nc1nc(C)cc(C)n1)NC(=O)c1ccccc1 | -4 | -11
CCCNC(=O)c1cc2ccccc2cc1O | 8 | 1
CN(CC1COc2ccccc2O1)C(=S)Nc1ccccc1F (stereo not drawn) | 1 | 9

Main list, from the first entry:
SMILES | NPYLR7 agonist | NPYLR7 agonist max-min
COc1cc(OC)c(N(CCO)CCO)cc1Cl | 14 | 10
CCOc1ccccc1NC(=Nc1nc(C)cc(C)n1)NC(=O)c1ccccc1 | -4 | -11
CCCNC(=O)c1cc2ccccc2cc1O | 8 | 1
CN(CC1COc2ccccc2O1)C(=S)Nc1ccccc1F (stereo not drawn) | 1 | 9
O=C(CCCCl)NC(Cc1ccccc1)C(=O)Nc1nnc(-c2cccc(Br)c2)s1 (stereo not drawn) | -5 | -1
Brc1ccc(-c2cn3nc4c(nc3n2)CCCC4)cc1 | 3 | 2
CC(OS(=O)(=O)c1ccc(Br)cc1)C(F)(F)[N+](=O)[O-] (stereo not drawn) | 0 | -7
COc1nc(N)nc(N2CCOCC2)c1CO | 3 | 1
CCC(C)N(Cc1ccc(C)cc1)CC(O)COC(C)C (stereo not drawn) | 16 | 25
Cn1c(-c2ccccc2Cl)nn(CN2CCc3sccc3C2)c1=S | -2 | -1
Clc1ccc(C2=NNC(=NC3CC3)SC2)cc1Cl | 1 | 0
CCc1ccc(C(O)c2ncc(-c3ccc4ccccc4c3)[nH]2)cc1 (stereo not drawn) | 0 | -1
O=C(Nc1cc(N2CCOCC2)ncn1)NC1(C(F)(F)F)Oc2ccccc2O1 | 2 | 9
CCN(C)C1=C(c2c(C)[nH]n(-c3ccc(F)cc3)c2=O)C(=O)N(c2ccccc2F)C1=O | 3 | 6
CN(Cc1ncc[nH]1)Cc1ccc(C#CC(C)(C)O)s1 | 21 | 9
Brc1cccc(-n2nnnc2-c2nc3ccccc3[nH]2)c1 | 3 | 26
CCOCCn1c(=O)c2c(nc3n2CCN3c2cccc(Cl)c2)n(C)c1=O | 10 | 4
O=C(Nc1ccc2[nH]cc(CCN3CCOCC3)c2c1)c1ccc(C(F)(F)F)cc1C(F)(F)F | 1 | -5
CCOC(=O)Cn1c(=NC(=O)c2cc(OC)c(OC)c(OC)c2)sc2c(C)cc(C)cc21 | 2 | 2
COC(=O)c1c(C)c(C(=O)CN(CC2CCCO2)C(=O)c2ccc(Br)cc2)c(C)n1C (stereo not drawn) | -13 | -4
Cn1cnnc1SCC(=O)NC1=NCCS1 | 9 | 5
COc1ccc(Cn2ccnc2CN(CC(C)C)S(=O)(=O)c2ccc(C)cc2)cc1 | 9 | 23
CNC(=O)c1ccc(CN(C)C(=O)c2ccc(Cl)cc2OC)cc1 | 0 | 2
CC(=O)Nc1nc(SCC(=O)N2CCc3ccccc32)[nH]c(=O)c1NC(=O)c1ccccc1 | 12 | 8
COc1ccc2nc(NC(=O)/C=C/c3cccc([N+](=O)[O-])c3)sc2c1 | 1 | -7
New compounds follow
SMILES | NPYLR7 agonist | NPYLR7 agonist max-min
Cc1ccc2oc(-c3ccc(NC(=O)c4ccc(Cl)c(Cl)c4)cc3Cl)nc2c1 | 7 | 9
O=C(Cn1cc(C(F)(F)F)ccc1=O)NC1CC1 | -3 | -6
CCN(CC)S(=O)(=O)c1ccc2nnc(SC(C)C#N)n2c1 (stereo not drawn) | 2 | 0
Cc1ccc(CNC(=O)C2CC3CCCC(C2)C3=O)n1C (stereo not drawn) | -3 | -2
Cc1cc(OCC(=O)c2ccc3c(c2)N(CC(=O)NCc2ccccc2)C(=O)CO3)ccc1Cl | 8 | 7
C=CCn1c(=S)[nH]c2sc3c(c2c1=O)CCCCC3 | -2 | -8
COc1ccc2c(c1)SC(C)C(=O)N2Cc1ccc(OC(F)(F)F)cc1 (stereo not drawn) | -5 | -4
Nc1nonc1-c1noc(C2CCCCC2)n1 | 4 | 1
O=C(c1ccccc1F)N1CCN(Cc2ccc3c(c2)OCO3)CC1 | 20 | 10
Cc1ccc(CN(CCc2c[nH]c3ccccc23)C(=O)CN(C(=O)/C=C/c2ccccc2)C2CC2)cc1 | 18 | 18
C/C(=N\N1CCOCC1)c1ccc(S(=O)(=O)NCc2ccccc2)cc1 | 1 | -7
COc1cccc(Cc2cnc(NC(=O)c3oc4c(c3C)C(=O)CCC4)s2)c1 | -3 | -2
Cc1cccc(OCCSc2nc3ccccc3[nH]2)c1 | 4 | 5
Cc1ccc(C(C)Cc2[nH]cnc2-c2ccccc2)o1 (stereo not drawn) | 11 | 13
CCOC(=O)CC1Cn2cccc2C1=O (stereo not drawn) | 8 | 9
O=C(Nc1ccc2nc([C@H]3C[C@H](O)[C@@H](CO)O3)[nH]c2c1)Nc1ccc(Br)cc1Br | 0 | -6
CC1(C)C[C@@H]2C[C@@](C)(CN2C(=O)c2cc(COc3ccc(-n4cncn4)cc3)on2)C1 | 3 | 1
CC1(C(=O)NS(=O)(=O)c2ccc(F)cc2F)CCN1C(=O)COc1ccc(Cl)cc1 (stereo not drawn) | 2 | 4
CN1CC(=O)N2C[C@@H](NC(=O)Cc3ccc(O)c(Cl)c3)C[C@H]2C1=O | 17 | 14
CC[C@]1(O)C[C@H]2CN(CCc3c([nH]c4ccccc34)[C@@](C(=O)OC)(c3cc4c(cc3OC)N(C)[C@H]3[C@@](O)(C(N)=O)[C@H](O)[C@]5(CC)C=CCN6CC[C@]43[C@@H]65)C2)C1 | -4 | -7
COc1ccc(OC)c2sc(N(Cc3ccccn3)C(=O)Cc3ccc(S(C)(=O)=O)cc3)nc12 | 13 | 11
Cc1cc(C(=O)CN2C(=O)NC3(CCCCCC3)C2=O)c(C)s1 | 9 | 3
CNC(=O)[C@@]1(OCc2ccc(F)cc2)CC(OCc2ccc(C(F)(F)F)cc2)[C@H](O)[C@H](O)C1 (stereo partly drawn) | 8 | 21
COc1ccc(N(CN2C(=O)C3C4c5ccccc5C(c5ccccc54)C3C2=O)C(C)=O)cc1 (stereo not drawn) | -5 | -8
COC(C)(C)c1noc(CCn2c(C)csc2=O)n1 | 8 | 8
Carrying on.
SMILES | NPYLR7 agonist | NPYLR7 agonist max-min
COc1cccc(C(C)N(C)C(=O)CCc2nnc(Cc3cc(OC)ccc3OC)o2)c1 (stereo not drawn) | 13 | 5
Cc1cc(C(=O)CSc2nnc(C3CC3)n2C2CC2)c(C)n1C(C)C | 0 | 7
Cc1ccc(/C=C2/N=C(c3ccccc3)OC2=O)o1 | -2 | -3
C=CCOCC(O)CN(CCC(C)C)Cc1cccn1Cc1ccccc1F (stereo not drawn) | 9 | 19
Cc1cc(C)c2c(n1)nn1c(N3CCN(CCO)CC3)cc(C)nc21 | -2 | 8
CCCNC(=O)Cn1nc2c(c1NC(=O)c1ccc(F)cc1F)CSC2 | -8 | -12
N#CC1C(=N)Oc2n[nH]c(-c3ccccc3)c2C1c1cccc(Br)c1 (stereo not drawn) | 5 | 4
O=C(c1cccnc1Cl)N1CCOC(COc2cccc(C(F)(F)F)c2)C1 (stereo not drawn) | -6 | -8
CN(C(=O)CSc1nc(-c2ccccc2Cl)nc2c1c(=O)n(C)c(=O)n2C)c1ccccc1 | -6 | -8
Cc1c(-c2ccccc2)[nH]c2c(CNC(=O)c3cnn(C)c3)cc(Cl)cc12 | -1 | 0
Cc1cc(C)nc(Nc2n[nH]c(-c3ccc(Cl)cc3)n2)n1 | 2 | 3
CC(C)c1ccc(NC2CCCN(C(=O)c3ccsc3)C2)cc1 (stereo not drawn) | -4 | -7
O=S(=O)(c1ccc(N2CCCCC2)c(N=Cc2ccccc2O)c1)N1CCCCC1 | 7 | 2
COc1ccc(CCN(Cc2ccc(C)o2)C(=O)CN(CC2CCCO2)C(=O)c2ccco2)cc1OC (stereo not drawn) | 14 | 23

Already shown: an excerpt of the list.
SMILES | NPYLR7 agonist | NPYLR7 agonist max-min
Cc1cc(C)c2c(n1)nn1c(N3CCN(CCO)CC3)cc(C)nc21 | -2 | 8
CCCNC(=O)Cn1nc2c(c1NC(=O)c1ccc(F)cc1F)CSC2 | -8 | -12
N#CC1C(=N)Oc2n[nH]c(-c3ccccc3)c2C1c1cccc(Br)c1 (stereo not drawn) | 5 | 4
O=C(c1cccnc1Cl)N1CCOC(COc2cccc(C(F)(F)F)c2)C1 (stereo not drawn) | -6 | -8
CN(C(=O)CSc1nc(-c2ccccc2Cl)nc2c1c(=O)n(C)c(=O)n2C)c1ccccc1 | -6 | -8
Cc1c(-c2ccccc2)[nH]c2c(CNC(=O)c3cnn(C)c3)cc(Cl)cc12 | -1 | 0
Cc1cc(C)nc(Nc2n[nH]c(-c3ccc(Cl)cc3)n2)n1 | 2 | 3

Entries of single compounds, looked up by structure.
COc1ccc(CCN(Cc2ccc(C)o2)C(=O)CN(CC2CCCO2)C(=O)c2ccco2)cc1OC (stereo not drawn) reads NPYLR7 agonist = 14; NPYLR7 agonist max-min = 23
CCCNC(=O)Cn1nc2c(c1NC(=O)c1ccc(F)cc1F)CSC2 reads NPYLR7 agonist = -8; NPYLR7 agonist max-min = -12
Cc1ccc(/C=C2/N=C(c3ccccc3)OC2=O)o1 reads NPYLR7 agonist = -2; NPYLR7 agonist max-min = -3
